Screening results as filed in PubChem.
Bfl-1 A1 inh: inhibitors of the anti-apoptotic protein A1, read as caspase activation. MEF A1-2A-BIM cells, Caspase-Glo 3/7 luminescence, 3 h; percent of clofoctol response, vehicle zero. caspase activation, % (no concentration beside the values). actives 0.066% (n = 330,000). AID 2462;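 active = over half of replicate activation scores above 10%, or exactly half above 10 with the replicate mean above 10; inconclusive = replicate mean below 10 yet half the replicates above 10; inactive = over half of replicates below 10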;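 note: wells of about 30 µL received 50 nL stock; many hits fall short of the cut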
rRNA inh HTS: selective bacterial rRNA inhibition in E. coli; E. coli WT GFP vs humanized-ribosome RFP mutants, fluorescence, 24 h; active compounds read low; DMSO median 0, no signal -100; GFP signal change (wild-type ribosome), % (concentration not given with the values); actives 1.6% (n = 350,000);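 active = significant combined selectivity score with lowered wild-type GFP, culture density cut under 30%, mutant RFP and density less affected; inactive = any of these conditions unmet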; note: one replicate is shown; some compounds called inactive have numbers as strong as hits
UCH37 DUB inh: human UCH37 deubiquitinating enzyme inhibition; actives 0.33% (n = 330,000); Q9Y5K5; purified proteasome/UCH37, Ub-AMC cleavage fluorescence; AID 588478; inhibition, % (concentration not given with the values);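 active = mean of two replicates above 20%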;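 note: 0% = compound-free wells with enzyme and 100% = wells lacking proteasome; stock transfer was 100 nL into about 20 µL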
Target sequence (Q9Y5K5 whole entry, looked up): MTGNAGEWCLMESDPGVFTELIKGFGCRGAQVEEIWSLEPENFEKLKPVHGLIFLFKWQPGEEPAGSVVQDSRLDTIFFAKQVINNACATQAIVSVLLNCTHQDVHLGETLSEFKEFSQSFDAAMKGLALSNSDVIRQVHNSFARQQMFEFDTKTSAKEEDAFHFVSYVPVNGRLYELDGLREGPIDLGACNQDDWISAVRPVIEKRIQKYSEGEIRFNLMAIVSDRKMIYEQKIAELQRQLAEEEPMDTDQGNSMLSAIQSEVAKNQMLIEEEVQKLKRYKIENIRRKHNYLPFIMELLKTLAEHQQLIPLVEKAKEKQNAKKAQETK
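Material: Human UCH37 enzyme supplied as purified proteasome complex | Schedule: 30 min compound-proteasome preincubation then 25 min substrate reaction, room temperature | Detection: AMC fluorescence from Ub-AMC cleavage, excitation 355 nm, emission 460 nm | Benchmarks: Wells without proteasome as full block, compound-free enzyme plus substrate as uninhibited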
T cruzi inh: T. cruzi replication inhibition | T. cruzi beta-gal in NIH3T3, luminescence, 90 h | inhibition, % (test concentration not listed) | actives 1.4% (n = 300,000);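 active = mean inhibition across valid replicates above about 55%, limit read from the data; inconclusive = mean below that limit but half or more replicates reach it; inactive = mean below it, under half of replicates reach it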;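 note: signal also drops with host cell toxicity which is not excluded here; 0% = plate median of DMSO wells and 100% = zero luminescence signal; higher percent means less beta-gal luminescence so fewer parasites; stock transfer was 50 nL into about 50 µL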
MLL AF4-AF9 inh: MLL-AF4/AF9 protein interaction inhibition; actives 0.47% (n = 350,000); AID 651704; inhibition, % at 10 µM; AlphaScreen, biotin-AF4 peptide binding to FLAG-AF9;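 active = every replicate reaching a set inhibition limit, whatever the replicate mean, cut at about 25% in these data; inconclusive = mean inhibition reaches that limit but some replicates miss it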;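 note: 0% = plate neutral control median and 100% = total signal loss; the record names both 10 and 1 µM as test concentration; the first replicate is given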
Target sequence (P42568 whole entry, looked up): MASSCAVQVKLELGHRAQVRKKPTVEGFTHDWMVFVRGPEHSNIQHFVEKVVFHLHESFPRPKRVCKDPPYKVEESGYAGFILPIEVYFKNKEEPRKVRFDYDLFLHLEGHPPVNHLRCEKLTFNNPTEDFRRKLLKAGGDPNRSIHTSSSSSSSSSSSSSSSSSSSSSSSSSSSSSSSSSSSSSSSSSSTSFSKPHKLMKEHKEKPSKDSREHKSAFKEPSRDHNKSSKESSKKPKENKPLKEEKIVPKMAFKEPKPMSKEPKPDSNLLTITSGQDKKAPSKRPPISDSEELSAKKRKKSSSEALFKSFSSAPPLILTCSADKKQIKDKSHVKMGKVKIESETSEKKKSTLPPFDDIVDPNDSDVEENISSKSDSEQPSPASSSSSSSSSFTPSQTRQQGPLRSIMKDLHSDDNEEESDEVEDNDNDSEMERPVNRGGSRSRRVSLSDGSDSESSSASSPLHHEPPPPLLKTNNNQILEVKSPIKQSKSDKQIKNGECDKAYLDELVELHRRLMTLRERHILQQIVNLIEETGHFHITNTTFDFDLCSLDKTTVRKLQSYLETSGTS
FGF22 binding: FGF22 (human) thermal shift binding. recombinant FGF22 thermal shift, SYPRO orange fluorescence; percent of sucrose octasulfate shift, DMSO zero. calls only at 9.99 µM. actives 1.5% (n = 340,000). AID 651658;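 active = melting point raised past a set limit in the mean and every replicate; inconclusive = no clear call; three in four hits are not shown here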
Target sequence (Q9HCT0 whole entry, looked up): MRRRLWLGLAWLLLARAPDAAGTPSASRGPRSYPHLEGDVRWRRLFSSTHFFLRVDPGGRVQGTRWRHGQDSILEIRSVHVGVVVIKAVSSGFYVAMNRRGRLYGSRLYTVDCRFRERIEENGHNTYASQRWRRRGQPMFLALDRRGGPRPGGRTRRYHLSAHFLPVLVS
Beta cell apopt: blocks beta cell apoptosis | INS-1E cytokine-induced death, ATP luminescence, 48 h; percent of positive-control rescue, neutral wells zero | protection from apoptosis, % (no concentration beside the values) | actives 0.8% (n = 300,000) | AID 435005;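 active = all replicates at 75% or more, or half of them and the mean; inconclusive = half reach 75% but not the mean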;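 note: 0% = cytokine-treated negative control wells and 100% = positive control rescue; higher means more ATP so stronger rescue from cytokine killing; wells of about 40 µL received 100 nL stock; the first replicate is given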
Ecoli growth: blocks Escherichia coli growth; OD600, 23 h; active compounds read low; OD600 absorbance (no concentration beside the values); actives 0.21% (n = 330,000);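 active = OD600 absorbance below the run mean of sample wells minus 3.6 SD, in any replicate, cut at about 0.56 in these data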;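 note: stock transfer was 300 nL into about 60 µL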
rRNA inh HTS OD600: recorded beside rRNA inh HTS, whose call it bears; OD600 change, %; measured here: OD600 growth;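 optical density of the mix in the first replicate; 0 = DMSO median and -100 = no signal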
rRNA inh HTS RFP: also measured in rRNA inh HTS; calls as there; RFP signal change, %; measured here: RFP humanized mutant strains;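 first replicate; 0 = DMSO median and -100 = no signal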
An asterisk follows results filed as active; i = inactive; ? = inconclusive; nt = no result given.

SMILES	Bfl-1 A1 inh	rRNA inh HTS	rRNA inh HTS OD600	rRNA inh HTS RFP	UCH37 DUB inh	T cruzi inh	MLL AF4-AF9 inh	FGF22 binding	Beta cell apopt	Ecoli growth
NC(=O)[C@@H]1CC2(CC(c3cccc(NC(=O)COc4ccc(Cl)cc4)c3)=NO2)CN1C(=O)c1ccccc1 (stereo not given in full)	0.1	-13	-27	7.9	-0.9	44	-22	i	-1	nt
CN(c1ccccc1)c1nc(N)c(C#N)c(CC#N)c1C#N	0.0	nt	nt	nt	5.7	-4	nt	nt	nt	0.67
O=C(Cn1c(C(F)(F)F)nc2ccccc21)Nc1ccccc1C(=O)O	0.2	-4	2	-3.6	7.8	-18	-1.6	nt	0	0.71
Cc1cc(C)c2nc(C)cc(N/N=C/c3ccc(O)cc3)c2c1	0.7	-31	-68	-1.1	nt	64*	26*	i	nt	nt
COc1cc(CCC(=O)OCC(=O)Nc2ccccc2C(C)C)cc(OC)c1OC	0.1	nt	nt	nt	1.8	-19	nt	nt	1	0.72
O=C(NCc1ccco1)c1cccnc1-c1nc2ccccc2s1	0.1	7	4	5.4	0.5	-6	nt	nt	-9	0.64
Cc1cccc(NC(=O)CSc2nnc(-c3ccccc3)n2N)c1C	0.1	nt	nt	nt	-0.1	-4	nt	nt	-3	0.68
CC(C)(C)c1ccc(C(=O)NN2CCOCC2)cc1	-0.4	24	8	4.3	1.5	-5	-2.3	i	-1	0.71
CCc1ccc(CCC(=O)Nc2ncc(Cc3ccccc3Cl)s2)o1	1.7	nt	nt	nt	2.2	-7	2.9	i	10	0.68
FC(F)Oc1ccccc1C1CC(c2ccc(Br)s2)Nc2ncnn21 (stereo not given)	0.0	nt	nt	nt	0.5	36	nt	nt	1	0.74
O=C(COC(=O)c1c(F)cccc1F)c1ccc[nH]1	-2.1	nt	nt	nt	0.8	-18	nt	nt	-7	0.7
COc1ccc(CNS(=O)(=O)c2ccc3c(c2)NC(=O)C(C)S3)cc1 (stereo not given)	-1.3	-19*	-8.8*	4.8*	1.5	0	2.8	i	-3	0.68
Cc1ccc(N=C2SCCCN2C(=O)c2ccco2)cc1Cl	-0.5	nt	nt	nt	2.0	22	nt	nt	10	0.67
Cc1n[nH]c(C)c1CN(C)C(=O)c1cc(COc2ccc(F)c(F)c2)on1	0.4	-21	-35	-5.6	1.8	-3	1.5	i	nt	0.68
Cc1ccc(C)n1-n1cnc2scc(-c3cccs3)c2c1=O	0.8	nt	nt	nt	-4.1	1	nt	nt	-19	0.77
Cc1noc(C)c1S(=O)(=O)N1CCC(C(=O)NCCc2ccc(S(N)(=O)=O)cc2)CC1	1.6	nt	nt	nt	1.6	-4	nt	nt	-6	0.7
CC1CCN(C(=O)Cn2nc(C(F)(F)F)c3c2CCCC3)CC1	1.7	nt	nt	nt	-0.3	0	nt	nt	nt	0.72
COc1ccc(CC(=O)NNC(=O)CSc2ccc(C)cc2)cc1	-1.6	18	12	-0.2	nt	-11	0.7	i	-5	nt
CCOC(=O)CNC(=O)CSc1ccc2nnc(-c3ccc(F)cc3)n2n1	-0.4	10	6	2.8	-31	-5	-0.6	nt	-1	0.71
CC(=O)NNC(=O)CSc1nnc(-c2ccccc2)c(-c2ccccc2)n1	-0.5	10	0	4.9	5.6	-9	0.4	i	-2	0.68
COc1ccc(C)c2sc(N3CCCC3)nc12	-0.5	nt	nt	nt	2.7	-8	nt	nt	-8	0.73
CCCS(=O)(=O)Nc1cc(C(F)(F)F)ccc1OCCOC	0.4	nt	nt	nt	2.7	21	nt	nt	-4	0.74
CCSc1nnc(NC(=O)CCc2ccccc2)s1	-0.5	nt	nt	nt	4.7	11	nt	nt	nt	0.7
N#Cc1ccc(CN2C(=O)NC3(CCCCCC3)C2=O)cc1	?	7	1	-1.0	1.1	2	-2.1	i	-9	0.7
COc1nc(N(C)C)nc(N(C)c2cc(Cl)cc(Cl)c2)n1	0.9	-8	-11	-6.5	4.0	12	0.6	i	-2	0.67
CCOC(=O)C1=C(COC(=O)CCOc2cccc(C)c2)NC(=O)NC1C (stereo not given)	-0.9	7	4	2.4	nt	-14	-0.2	nt	-4	nt
O=C(NCc1ccncc1)Nc1cccc(Cl)c1	-0.3	nt	nt	nt	0.9	-6	nt	nt	-7	0.66
Cc1cccc(C)c1OCCCCn1cnc2ccccc2c1=O	0.0	nt	nt	nt	0.2	16	nt	nt	-3	0.65
O=C1OC[C@H]2CCCC[C@@H](CO)ON12	nt	4	-5	-2.3	-1.2	nt	-0.2	i	nt	0.72
COc1ccc(-c2cc(C)no2)cc1S(=O)(=O)N1CCCN(Cc2ccc(F)cc2)C1	1.7	2	2	2.0	1.8	15	3.3	i	-8	0.69
CCN1CCN(C(=O)CN(C)S(=O)(=O)c2cc(C)ccc2OC)CC1	-0.2	24	11	2.1	2.6	-10	1.0	i	-4	0.65
CC(=O)Nc1cccc(Oc2ncnc3scc(-c4ccc(C(C)C)cc4)c23)c1	1.0	nt	nt	nt	3.3	23	nt	nt	-4	0.69
COc1cc(C(=O)Nc2cccc(-c3nc4ncccc4o3)c2C)cc(OC)c1OC	-0.8	nt	nt	nt	0.7	-2	nt	nt	-1	0.75
CCOC(=O)c1cc(-c2nnc(-c3ccc(Cl)cc3)o2)c(C)nc1C	-0.3	7	8	2.7	2.6	-6	-3.6	i	3	0.75
CCOC(=O)c1cc2c(n(-c3ccc(C)cc3)c1=O)CCCC2=O	-0.9	nt	nt	nt	-7.6	9	nt	nt	-7	0.71
COc1ccc(C(=O)Nc2cc(C(F)(F)F)ccc2-n2cnc3ccccc32)cc1	0.1	nt	nt	nt	nt	-7	-1.0	i	0	nt
COC(=O)c1cccc(NS(C)(=O)=O)c1C	0.8	nt	nt	nt	6.9	15	nt	nt	-1	0.63
O=[N+]([O-])c1ccccc1S(=O)(=O)Nc1cccnc1	1.5	6	15	-6.2	5.3	-1	-0.3	i	-15	0.63
COC(=O)c1ccccc1NC(=O)c1ccc(NC(=O)C2CCCO2)cc1 (stereo not given)	0.5	4	3	-2.6	1.1	8	-8.9	i	-2	0.65
O=C(Nc1ccc(NC(=O)c2ccco2)nc1)c1ccco1	-6.3	12	16	41	3.6	-9	-2.0	i	-12	0.68
C[C@@H]1CN(Cc2nc(Cc3ccccc3F)no2)C[C@H](C)O1	-0.4	18	23	0.3	0.7	1	-1.8	i	nt	0.68
CCOC(=O)C1CCN(S(=O)(=O)c2c(C)[nH]c(C)c2C(=O)N2CCCCC2)CC1	0.0	3	9	-6.8	3.4	-1	1.0	i	-1	0.65
CCOC(=O)/C(C#N)=C/c1cccc(C)c1	-1.0	7	11	-0.5	0.1	-11	-11	i	-2	0.68
Cc1cc(C)cc(N(CCC#N)C(=O)CSc2nc3nc(C)cc(C)n3n2)c1	-0.2	-4	-3	1.1	1.9	1	-8.7	i	-7	0.61
CC(C)(C)OC(=O)NCc1nc(N)n[nH]1	-0.5	nt	nt	nt	-5.9	-11	nt	nt	0	0.77
Cc1cc(C(=O)CN2C(=O)c3ccccc3C2=O)c(C)n1Cc1cccs1	-0.5	-7	-5	12	3.4	12	?	i	nt	0.7
COc1ccc2oc(C(=O)N(C)Cc3ccc4c(c3)OCCO4)c(C)c2c1	0.1	-15	-27	2.4	-2.7	5	0.0	nt	-4	0.64
COc1cccc(NC(=O)c2cc(-c3ccccn3)nc3ccccc23)c1	-1.4	9	3	-1.3	3.9	nt	2.6	i	1	0.65

A draw from above in order of number of heavy atoms, falling:
SMILES	Bfl-1 A1 inh	rRNA inh HTS	rRNA inh HTS OD600	rRNA inh HTS RFP	UCH37 DUB inh	T cruzi inh	MLL AF4-AF9 inh	FGF22 binding	Beta cell apopt	Ecoli growth
COC(=O)c1ccccc1NC(=O)c1ccc(NC(=O)C2CCCO2)cc1 (stereo not given)	0.5	4	3	-2.6	1.1	8	-8.9	i	-2	0.65
Cc1cccc(NC(=O)CSc2nnc(-c3ccccc3)n2N)c1C	0.1	nt	nt	nt	-0.1	-4	nt	nt	-3	0.68
COc1ccc(C)c2sc(N3CCCC3)nc12	-0.5	nt	nt	nt	2.7	-8	nt	nt	-8	0.73

Additional entries
SMILES	Bfl-1 A1 inh	rRNA inh HTS	rRNA inh HTS OD600	rRNA inh HTS RFP	UCH37 DUB inh	T cruzi inh	MLL AF4-AF9 inh	FGF22 binding	Beta cell apopt	Ecoli growth
CC(C)C(NC(=O)OCc1ccccc1)C(=O)OCC(=O)N1CCCCC1 (stereo not given)	-1.4	nt	nt	nt	1.5	9	nt	nt	nt	0.71
O=C(CN(CCc1ccccc1)C(=O)CNS(=O)(=O)c1ccc(F)cc1)NCc1ccco1	0.0	nt	nt	nt	1.1	5	nt	nt	2	0.71
O=S(=O)(c1cccs1)N1CCC2(CC1)OCCN2S(=O)(=O)c1ccccc1	1.3	8	0	1.5	4.9	4	0.7	i	0	0.69
CCN(CC)c1ccc(S(=O)(=O)N2CCOCC2)cc1NC(=O)COC(=O)/C=C/c1ccc(O)c(OC)c1	nt	-15	-15	-0.3	-6.0	nt	2.7	i	nt	0.67
CC(Sc1nnc(-c2cccs2)n1C1CC1)C(=O)NCC1CCCO1 (stereo not given)	-0.8	8	-6	-1.3	3.9	nt	0.7	i	6	0.67
COC(=O)c1ccccc1Sc1ncnc2onc(C)c12	-0.5	5	-7	0.1	2.0	-15	-2.1	i	-35	0.71
Cc1ccc(N(C(=O)CNC(=O)c2ccco2)C(C(=O)NC2CCCCC2)c2cccnc2)cc1 (stereo not given)	0.8	3	16	-0.5	4.3	11	-0.3	i	-7	0.67
N#CCCN1CCN(C(=S)c2ccc(-c3cc(Cl)ccc3Cl)o2)CC1	0.2	nt	nt	nt	6.2	19	nt	nt	-1	0.7
CCOC(=O)c1ccc(NC(=O)c2ccc[n+]([O-])c2)cc1	1.0	4	8	-0.9	0.9	13	-1.5	i	0	0.67
O=C(CSc1nc(C2CC2)nc2ccccc12)N1c2ccccc2Sc2ccc(C(F)(F)F)cc21	-0.3	nt	nt	nt	-1.2	31	nt	nt	-2	0.71
CN1C(=O)CSC1=Nc1cccc(C(=O)O)c1	0.5	20	17	-1.4	-0.9	4	-1.9	i	-17	0.68
COc1cccc(/C=N/NC(=O)CSCC(=O)Nc2ccccc2)c1O	-1.5	-30	-48	-12	nt	-5	-15	i	5	nt
COC(=O)CC1C(=O)NCCN1C(=S)Nc1cccc(C)c1 (stereo not given)	0.9	nt	nt	nt	2.8	-43	nt	nt	-4	0.69
CC(C)(C)c1ccc(C(=O)NCC(=O)NCC(C)(C)N2CCOCC2)cc1	nt	8	1	-1.8	3.9	nt	-1.7	i	nt	0.7
Cc1ccc(NC(=O)C2CCN(S(=O)(=O)c3ccc4[nH]c(=O)ccc4c3)CC2)c(C)c1	1.1	4	16	-3.3	6.7	-2	-12	i	-1	0.76
Cc1ccc(NC2=NC3(CCCC3)N=C(N)N2)c(C)c1	0.2	0	-5	-1.5	4.6	-10	3.1	i	-8	0.7

The list is partial; the hit share may differ from the screen's.
